# Compound activity: PubChem, several laboratories
# eIF4H inh – human eIF4H binding inhibitors, primary screen, translation initiation inhibitor project, biochemical, uHTS, fluorescence polarization | Eukaryotic translation initiation factor 4H (Homo sapiens), Q15056 | eIF4H fluorescence polarization binding assay | inhibition, % at 35 µM | 290,000 tested, 0.94% active | AID 2012, 2009;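 active means 50% or more with normal probe brightness, or confirmed in later tests; inconclusive means above 50% with abnormal brightness, or retests that disagree; inactive means below 50% or failed in later tests; about a fifth of its hits are not listed in these tables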;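 further: calls also rest on retests at 20 µM and on dose response follow-up; 0% = protein and probe with vehicle and 100% = probe without protein; strong numbers were not always called active; many hits fall short of the cut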
# CSC inhib – cancer stem cell viability inhibitors, primary screen, luminescence | cancer stem cell-like cells viability | inhibition, % at 7.5 µM | 300,000 tested, 1.1% active;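 active means mean at 75% or more and at least half the replicates too; inconclusive means mean and replicates disagree; tested in HMLE shEcad cells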;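 further: 0% = median of negative and 100% = median of positive control wells; the first replicate is given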
# MT1-MMP act inh – blockers of MT1-MMP proenzyme processing, primary screen, HT1080 RFP-PRO-GFP cells, GFP/RFP fluorescence; Matrix metalloproteinase-14 (Homo sapiens), P50281; GFP/RFP ratio fluorescence, overnight; percent of plate control window, DMSO zero; GFP/RFP ratio change, % at 20 µM; 360,000 tested, 0.061% active; AID 651647, 2012;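 active means GFP/RFP ratio change of at least 30% with cell ATP level not reduced by more than half and red fluorescence within 50% of control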; further: strong numbers were not always called active
#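 Material: RFP-PRO-GFP reporter HT1080 cells. Dosing: single-point 20 µM compound, 1% DMSO. Controls: DMSO and RFP-L50D-GFP cell wells. Timing: cells overnight before dosing, compound overnight, 37 °C, 5% CO2. Measure: GFP/RFP fluorescence ratio.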
# HIV Env fusion – inhibitors of HIV-1 Env-driven cell-cell fusion, primary screen, HeLa-JRFL effector, CEM21 target cells, luciferase; inhibition, % at 12.3 µM; 360,000 tested, 1.1% active; AID 651610, 2012;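 active means mean replicate inhibition score of at least 50 and every replicate individually at or above 50; inconclusive means only one of the two criteria met; inactive means mean below 50 and not all replicates reaching 50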;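 further: 0% = plate neutral controls and 100% = maraviroc near 300 nM; one replicate is shown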
# UUG fidelity – modulators of yeast start codon fidelity, primary screen, whole organism, S. cerevisiae, single point, plate reader; S. cerevisiae UUG-firefly luciferase reporter, luminescence/redox ratio; activity score, % at 18.7 µM; 350,000 tested, 0.13% active;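 active means replicate mean at a twofold rise or more, about +100% in these data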;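 further: firefly luciferase made from a UUG start codon reports start codon fidelity; reporter light over untreated wells divided by growth signal over untreated wells; some hits fall short of that in this replicate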
# PABP FP inh – PABP poly(A) RNA binding inhibitors, primary screen, biochemical, fluorescence polarization, uHTS; inhibition, % at 35 µM; 290,000 tested, 1% active; AID 2014, 2009;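 active means 50% or more with normal probe brightness, or confirmed in later tests; inconclusive means above 50% with abnormal brightness, or retests that disagree; inactive means below 50% or failed in later tests; about a fifth of its hits are not listed in these tables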;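 further: calls also rest on retests at 20 µM and on dose response follow-up; controls were probe without protein and protein plus probe with vehicle; some compounds called inactive have numbers as strong as hits; many hits fall short of the cut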
# Target sequence (P11940 whole entry, looked up): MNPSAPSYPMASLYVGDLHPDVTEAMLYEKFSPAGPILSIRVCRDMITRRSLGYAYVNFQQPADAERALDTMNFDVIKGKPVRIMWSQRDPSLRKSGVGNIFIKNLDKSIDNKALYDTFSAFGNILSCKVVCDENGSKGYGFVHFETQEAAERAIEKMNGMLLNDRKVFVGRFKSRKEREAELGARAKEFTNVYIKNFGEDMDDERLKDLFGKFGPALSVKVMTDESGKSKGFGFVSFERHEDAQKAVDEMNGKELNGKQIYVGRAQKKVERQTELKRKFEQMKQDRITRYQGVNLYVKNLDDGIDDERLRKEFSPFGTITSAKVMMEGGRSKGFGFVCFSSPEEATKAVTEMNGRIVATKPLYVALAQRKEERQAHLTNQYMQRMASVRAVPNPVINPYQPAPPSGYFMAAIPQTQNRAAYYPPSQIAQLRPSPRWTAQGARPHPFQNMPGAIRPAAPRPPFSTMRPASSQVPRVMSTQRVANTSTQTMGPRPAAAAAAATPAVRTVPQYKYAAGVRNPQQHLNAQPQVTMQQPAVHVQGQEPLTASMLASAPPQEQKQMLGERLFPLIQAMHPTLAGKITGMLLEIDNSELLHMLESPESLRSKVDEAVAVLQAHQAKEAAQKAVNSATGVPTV
# Rce1 inhib – yeast Rce1p protease inhibitors, primary screen, biochemical, fluorescence, cell-free homogeneous. calls only. 290,000 tested, 0.27% active. yeast membranes, quenched prenylated peptide cleavage fluorescence. CAAX prenyl protease 2 (Saccharomyces cerevisiae (strain ATCC 204508 / S288c)), Q03530;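 active means fall in fluorescence gain of 50% or more versus controls, with final raw signal at or below 3038400; inconclusive means same 50% fall but final raw signal above 3038400; inactive means fall in fluorescence gain under 50%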;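 further: plate controls were neutral control wells for no effect and wells lacking membranes for full effect; tested at 10 µM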
# Target sequence (Q03530 whole entry, looked up): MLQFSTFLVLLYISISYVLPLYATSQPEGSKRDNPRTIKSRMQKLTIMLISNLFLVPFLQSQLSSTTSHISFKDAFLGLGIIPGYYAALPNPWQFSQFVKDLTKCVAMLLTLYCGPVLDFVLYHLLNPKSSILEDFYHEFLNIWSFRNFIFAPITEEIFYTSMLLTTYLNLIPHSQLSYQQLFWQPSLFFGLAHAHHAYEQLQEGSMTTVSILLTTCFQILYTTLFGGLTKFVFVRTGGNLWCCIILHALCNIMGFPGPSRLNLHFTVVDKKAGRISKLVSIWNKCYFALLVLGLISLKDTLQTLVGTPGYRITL
# eIF4H inh retest – further read-out of eIF4H inh, marked with its call; inhibition, %; compound at 20 µM; confirmation average;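 mean of two retest wells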
# PABP FP inh retest – second read-out of PABP FP inh, no call of its own (marks repeat the call); inhibition, %; compound at 20 µM; confirmation repeats;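 mean of two retest wells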
# MT1-MMP act inh RFP – also measured in MT1-MMP act inh; calls as there; RFP signal change, %; measured here: RFP expression control read;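 0 = vehicle wells; hits needed this value within 50% of zero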
# Active calls of the source: *; i = inactive; ? = inconclusive; / = not tested or not shown; + = active, no number; & = joins results of further samples; [ ] = remark or other dose.
SMILES,eIF4H inh,CSC inhib,MT1-MMP act inh,MT1-MMP act inh RFP,HIV Env fusion,UUG fidelity,PABP FP inh,Rce1 inhib,others
CCOc1ccc(CCN2C(=S)N([C@@H](Cc3ccc(O)cc3)CN3CCC[C@@H]3CN3C(=S)NC[C@@H]3CC(C)C)C[C@@H]2Cc2ccc(O)cc2)cc1,/,/,-7,-17,67*,-10,/,/,
O=S(=O)(c1ccc2ccccc2c1)N1CCCCC1,0,0,-4,3,/,-11,6,i,
O=C(O)C1C2C=CC(C2)C1C(=O)NCCCc1ccccc1 (stereo not given),-9,-12,-2,3,-14,/,-11,i,
CCOC(=O)c1c(NC(=O)C(C)Sc2c[nH]c3ccccc23)sc2c1CCC2 (stereo not given),6,37,-2,-6,67*,-19,10,i,
Cc1cc(C)cc(NC(=O)C(Nc2ccccc2)c2ccccc2)c1 (stereo not given),-8,15,-11,-8,-1,/,-9,i,
Cc1ccc(NC(=S)NCC23C=CC(O2)C2C(=O)N(c4ccc(C)cc4)C(=O)C23)cc1 (stereo not given),3,-8,0,-2,24,-13,21,i,
COc1ccc(/C=N/NC(=O)C(=O)N2CCN(c3ccccc3OC)CC2)cc1,-12,-17,7,6,-2,5,0,i,
CC1CCN(CCOCCOc2ccc(Cl)cc2Br)CC1,4,62,-2,-1,/,-18,9,/,
Cc1ccc(NC(=S)NC2CCCC2)cc1C,1,-12,5,5,-14,-26,10,i,
O=C(N/N=C/c1ccc2ncccc2c1)c1cc(-c2cccs2)nc2ccccc12,-8,34,-10,-10,-16,8,-2,i,
COc1ccc(CN(C)CC(=O)Nc2ccccc2C(=O)NC2CC2)cc1,/,-23,6,3,/,-5,/,/,
C=CCn1c(SCCN2C(=O)c3ccccc3C2=O)nc2scc(-c3ccccc3)c2c1=O,-2,43,5,3,/,-11,6,i,
CC1(C)C=Cc2cc3ccc(=O)oc3cc2O1,-4,-11,-6,-1,/,-20,8,i,
Cc1cccc(N2CCN(Cc3nc(-c4cccc(Oc5ccccc5)c4)oc3C)CC2)n1,-7,33,4,4,19,-7,-6,i,
O=C(NNc1cc(Cl)cc(Cl)c1)C1CCC1,-8,-12,2,2,10,/,0,i,
Cc1ccc(S(=O)(=O)N(C)C)cc1NC(=O)CCc1ccccc1,1,3,-2,-4,-7,/,1,i,
CN1CCCN(S(=O)(=O)c2ccccc2)c2nc3ccccc3nc21,/,/,-9,4,7,-10,/,/,
COc1ccccc1NS(=O)(=O)c1cccc(C(=O)OCC(=O)Nc2cc(C)on2)c1,-7,-6,3,2,/,/,-10,i,
Cc1ccc(S(=O)(=O)N2C[C@H]3C(=O)C[C@@H]4C(=O)N(c5ccccc5)C(=O)[C@@H]4[C@@H]3C[C@H]2c2cccs2)cc1,/,/,4,4,-37,-18,/,/,
COc1ccc(C(=O)NCCc2ccc(Cl)cc2)cc1S(=O)(=O)N1CCCCC1C (stereo not given),/,/,-7,-22,89*,-18,/,/,
CC(=O)c1c(C)oc2ccc(NS(=O)(=O)c3ccc(C(=O)O)cc3)cc12,-17,/,-5,-3,-4,-4,0,+,
Cc1ccc(S(=O)(=O)NOCc2ccccc2)cc1,/,/,-1,4,0,-10,/,/,
CCOc1ccc(NC(=O)CCNS(=O)(=O)c2cccc3nonc23)cc1,-6,1,-2,0,4,/,10,i,
COc1cccc(/C=C/C(=O)Nc2ccc(N3CCOCC3)cc2)c1OC,-5,-7,7,5,2,-10,9,i,
O=[N+]([O-])c1cc([N+](=O)[O-])c2oc(-c3ccccc3)c(Br)c2c1O,-1,/,-1,-26,/,2,17,i,
O=C(Nc1ccccc1)c1cccnc1N1CCOCC1,2,-2,-8,-3,5,-10,-8,i,
CCN(Cc1cc2ccccc2[nH]c1=O)S(=O)(=O)c1ccccc1,-1,-16,5,-1,-31,/,-2,i,
NC1=NC(c2ccccc2)N=C(Nc2ccccc2)N1 (stereo not given),0,5,/,/,-48,/,-1,/,
C[C@H]1CN([C@@H](C)CO)C(=O)CCCn2cc(nn2)CO[C@@H]1CN(C)C(=O)Nc1cccc(C(F)(F)F)c1,/,/,2,6,-8[16.7 µM],-12&5,/,/,
Cc1sc2nc(CSc3ccc([N+](=O)[O-])c(C(F)(F)F)c3)[nH]c(=O)c2c1C,26,14,-13,0,8,/,4,i,
O=C(Cc1cccc(NC(=O)C2CCN(S(=O)(=O)c3cccc([N+](=O)[O-])c3)CC2)c1)Nc1cccc(C(=O)N2CCOCC2)c1,/,/,2,4,2,-1,/,/,
O=C(Nc1ccccc1[N+](=O)[O-])C1=C(O)CCn2c1nc1ccccc12,15,2,-3,-2,/,-6,1,i,
COc1ccc(C(=O)NCCC2=CCCCC2)cc1[N+](=O)[O-],17,4,-1,-6,5,1,1,i,
O=C(Nc1ccc(S(=O)(=O)Nc2nccs2)cc1)c1cc(-c2ccccn2)nc2ccccc12,24,-12,-3,1,15,/,8,i,
COc1ccccc1-c1ccc2nnc(SC)n2n1,1,-8,5,2,-25,-9,8,i,
O/N=C\c1ccc(-c2ccccc2)o1,-1,-10,-3,0,/,/,24,i,
Clc1cccc(Cl)c1OCCOCCNCc1ccccc1,-1,-6,4,6,19,-23,-8,i,
O=C(C1=C[C@@H](c2ccccc2)C[C@@H](OCCCCO)O1)N1CCOCC1,9,7,0,2,16[16.7 µM],6&-10,7,i,
CCCCN(CCCC)CCNC(=O)CN1C(=O)CSc2ccc(S(=O)(=O)N3CCOCC3)cc21,1,-11,0,2,-14,-5,2,i,
CCCCNC(=O)C1(c2ccc(OC)cc2)CCOCC1,-8,-14,-5,-2,-39,3,6,i,
Cc1ccc(C(=O)OC(C(=O)Nc2ccc(Cl)cc2C(F)(F)F)c2ccccc2)cc1 (stereo not given),0,/,-2,2,-34,/,4,i,
COc1ccccc1N1CCN(S(=O)(=O)c2ccc(-n3cnnn3)cc2)CC1,71*,-8,1,-1,-8,-6,7,i,eIF4H inh retest=67*;PABP FP inh retest=13
Cc1ccc(C(=O)COC(=O)c2cc(C)no2)c(C)c1,/,/,-2,3,6,-26,/,/,
CCN1CCN(C(=O)c2cc3cc(F)ccc3[nH]2)CC1,-9,-5,1,1,-5,-7,-9,i,
CCS(=O)(=O)c1ccc(-c2csc(-c3ccc(Cl)cc3)n2)c(Cl)c1Cl,-2,16,1,3,/,-13,11,i,
Cn1c(SCC(=O)OC2CCCCC2)nnc1-c1ccc(S(=O)(=O)N2CCCC2)cc1,1,-12,2,-2,/,-8,-2,i,
Cc1cc(CNC(=O)Nc2ccc3c(c2)OCO3)nn1C,-12,-10,0,0,-69,5,-10,i,
CC(C)N(C(=O)c1sc2cc([N+](=O)[O-])ccc2c1Cl)C(C)C,-13,-9,0,3,-69,-11,0,/,
COc1cccc(NC(=O)CN2C(=O)NC(C)(c3ccc(C)cc3)C2=O)c1 (stereo not given),-5,3,2,3,-39,-10,-2,i,
COCCN1C(=O)N[C@@H](CCc2ccccc2)[C@H](C(C)=O)[C@H]1C,2,3,5,4,-2,-18,1,i,
CC1CCN(CCCNC(=O)CN2CCN(Cc3ccc(Cl)cc3)C2=O)CC1,-1,-12,-1,-1,4,-1,11,i,
CN(C)CCNC(=S)Nc1cccc(Cl)c1,-10,-6,-2,1,-36,-14,-17,i,
CN(CCO)c1nc2c(c(=O)n(Cc3ccc(Cl)cc3)c(=O)n2C)n1C,5,-11,6,-1,5,/,9,i,
CCN1C(=O)[C@@H]2[C@@H](c3ccc(-c4ccc(C(C)=O)cc4)c(OC)c3)N3CCCC[C@@]3(C(=O)OC)[C@@H]2C1=O,/,7,-3,1,-13,-2,/,i,
CN(CCc1ccccc1)C(=O)c1cccc(NC(=O)Cc2cccc(NC(=O)C3CCN(C(=O)C4CC4)CC3)c2)c1,/,/,4,2,0,0,/,/,
Cc1ccc(-n2nc3c(=O)n(CCCC(=O)NCc4cccc(F)c4)nc(C)c3c2C)cc1,/,6,6,-1,12,-8,/,i,
Cc1cc(C(=O)N(C)CC(=O)Nc2ccccc2C(F)(F)F)c(C)o1,-3,1,1,7,-58,-17,7,i,
COC(=O)C1Cc2c([nH]c3ccccc23)C(C(C)C)N1 (stereo not given),-8,-5,1,2,20,-21,-3,i,
O=C(NNC(=S)NC1CCCCC1)c1ccccc1O,2,2,-5,-19,3,-16,23,i,
N#CC1=C(N)Nc2nc3ccccc3n2C1c1ccc(Cl)cc1 (stereo not given),-12,21,3,-9,17,/,-4,i,
# Later entries
SMILES,eIF4H inh,CSC inhib,MT1-MMP act inh,MT1-MMP act inh RFP,HIV Env fusion,UUG fidelity,PABP FP inh,Rce1 inhib,others
C=CCOC(=O)C1=C[C@H](C(C)(C)C)[C@@H](CCCO)[C@H](OCC)O1,/,-7,3,-1,37,-2,/,i,
COc1ccccc1NS(=O)(=O)c1cccc(C(=O)NCC(c2cccs2)N2CCOCC2)c1 (stereo not given),/,-8,4,-2,0,7,/,/,
CC(=O)c1ccc(N2CCN(CC(=O)Nc3ccc4c(c3)OCCO4)CC2)cc1,-11,14,0,-1,/,-11,-3,i,
CCCCCCC(=O)Oc1cccc(C2=CC(=O)CC(C)(C)C2=O)c1,/,/,-2,-3,18,13,/,/,
CCC1SC(=Nc2cccc(C)c2)NC1=O (stereo not given),1,6,2,5,-21,-8,4,i,
CC(=O)c1ccc(NC(=S)N2CCCC(C(F)(F)F)C2)cc1 (stereo not given),-5,-8,7,1,0,/,0,i,
CC[n+]1c(/C=C/c2cc([N+](=O)[O-])ccc2O)ccc2ccccc21,-5,-3,3,2,-5,-5,12,i,
O=C(c1cc2cc(Cl)ccc2[nH]1)N1CCc2ccccc2C1,1,-3,2,2,1,15,-6,i,
CC(=O)Nc1ccnc(-c2cccnc2)n1,-10,-15,0,-1,/,-14,-1,i,
CCC1(C)CC2(CCCN(CCC(=O)c3ccccc3)C2)CCO1 (stereo not given),11,12,0,3,-16,/,18,i,
CCOc1ncccc1C(=O)Nc1cc(S(=O)(=O)N2CCOCC2)ccc1N1CCCC1,-3,4,0,6,5,-4,-16,i,
COc1cccc(NC(=O)CN(C)C(=O)c2ccccc2-c2nc3ccccc3s2)c1,/,5,-4,-7,1,-3,/,/,
COc1ccc(N2CCN(C(=O)CC34CC5CC(CC(C5)C3)C4)CC2)c([N+](=O)[O-])c1,8,43,-5,-31,?,-13,-4,i,
Cc1cc(C(=O)COc2ncnc3sccc23)c(C)n1C,16,3,3,2,/,-15,16,i,
CCn1cc(C(=O)N2CCN(c3ccccn3)CC2)c(=O)c2cc(S(=O)(=O)N3CCC(C)CC3)ccc21,-5,-4,-1,-3,11,5,5,i,
COc1cccc(CCc2nc3ccccc3c(=O)n2N)c1,/,5,2,-4,-15,/,/,i,
CC1CCc2nc3sc4c(c3c(N)c2C1)CCCC4 (stereo not given),1,15,1,-5,9,/,0,i,
Cc1ccc(-c2c[n+]3c(n2-c2ccccc2)CCC3)cc1,-9,-15,4,-27,6,/,-2,i,
